# CSC inhib – cancer stem cell inhibition. cancer stem cell-like cells viability, luminescence. inhibition, % at 7.5 µM. hit rate 1.1% among 300,000;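 active means mean at 75% or more and at least half the replicates too; inconclusive means mean and replicates disagree; tested in HMLE shEcad cells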;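 further: 0% = median of negative and 100% = median of positive control wells; the first replicate is given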
# Rce1 inhib – yeast Ras-converting enzyme inhibition | Q03530 | yeast membranes, quenched prenylated peptide cleavage fluorescence | calls only | hit rate 0.27% among 290,000 | AID 2563;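 active means fall in fluorescence gain of 50% or more versus controls, with final raw signal at or below 3038400; inconclusive means same 50% fall but final raw signal above 3038400; inactive means fall in fluorescence gain under 50%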;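 further: plate controls were neutral control wells for no effect and wells lacking membranes for full effect; tested at 10 µM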
# Target sequence (Q03530 whole entry, looked up): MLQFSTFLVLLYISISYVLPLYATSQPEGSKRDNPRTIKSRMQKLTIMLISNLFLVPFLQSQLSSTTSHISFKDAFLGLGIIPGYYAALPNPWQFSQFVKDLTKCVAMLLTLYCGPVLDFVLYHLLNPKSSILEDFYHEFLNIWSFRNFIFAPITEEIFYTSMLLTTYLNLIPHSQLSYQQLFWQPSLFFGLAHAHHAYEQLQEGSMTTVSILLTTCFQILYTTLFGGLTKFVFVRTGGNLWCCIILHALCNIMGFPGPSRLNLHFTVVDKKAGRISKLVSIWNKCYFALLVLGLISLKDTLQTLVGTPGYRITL
# MT1-MMP act inh – blocks activation of human MT1-MMP; P50281; HT1080 RFP-PRO-GFP cells, GFP/RFP ratio fluorescence, overnight; percent of plate control window, DMSO zero; GFP/RFP ratio change, % at 20 µM; hit rate 0.061% among 360,000; AID 651647;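 active means GFP/RFP ratio change of at least 30% with cell ATP level not reduced by more than half and red fluorescence within 50% of control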; further: strong numbers were not always called active
#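 Test system: HT1080 cells expressing an RFP-PRO-GFP fluorescent reporter construct / Compound dosing: single-point 20 µM compound, 1% DMSO / Schedule: cells overnight before dosing, compound overnight, 37 °C, 5% CO2 / Evaluation: GFP/RFP fluorescence ratio / Control set: DMSO and RFP-L50D-GFP cell wells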
# Yeast UUG start – modulators of start codon recognition fidelity in yeast | activity score, % at 18.7 µM | S. cerevisiae UUG-firefly luciferase reporter, luminescence/redox ratio | hit rate 0.13% among 350,000;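 active means replicate mean at a twofold rise or more, about +100% in these data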;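 further: firefly luciferase made from a UUG start codon reports start codon fidelity; reporter light over untreated wells divided by growth signal over untreated wells; some hits fall short of that in this replicate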
# PABP FP inh – blocks human PABP binding to poly(A) RNA; P11940; fluorescence polarization; inhibition, % at 35 µM; hit rate 1% among 290,000; AID 2014;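 active means 50% or more with normal probe brightness, or confirmed in later tests; inconclusive means above 50% with abnormal brightness, or retests that disagree; inactive means below 50% or failed in later tests; about a fifth of its hits are not listed in these tables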;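 further: calls also rest on retests at 20 µM and on dose response follow-up; controls were probe without protein and protein plus probe with vehicle; some compounds called inactive have numbers as strong as hits; many hits fall short of the cut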
# Target sequence (P11940 whole entry, looked up): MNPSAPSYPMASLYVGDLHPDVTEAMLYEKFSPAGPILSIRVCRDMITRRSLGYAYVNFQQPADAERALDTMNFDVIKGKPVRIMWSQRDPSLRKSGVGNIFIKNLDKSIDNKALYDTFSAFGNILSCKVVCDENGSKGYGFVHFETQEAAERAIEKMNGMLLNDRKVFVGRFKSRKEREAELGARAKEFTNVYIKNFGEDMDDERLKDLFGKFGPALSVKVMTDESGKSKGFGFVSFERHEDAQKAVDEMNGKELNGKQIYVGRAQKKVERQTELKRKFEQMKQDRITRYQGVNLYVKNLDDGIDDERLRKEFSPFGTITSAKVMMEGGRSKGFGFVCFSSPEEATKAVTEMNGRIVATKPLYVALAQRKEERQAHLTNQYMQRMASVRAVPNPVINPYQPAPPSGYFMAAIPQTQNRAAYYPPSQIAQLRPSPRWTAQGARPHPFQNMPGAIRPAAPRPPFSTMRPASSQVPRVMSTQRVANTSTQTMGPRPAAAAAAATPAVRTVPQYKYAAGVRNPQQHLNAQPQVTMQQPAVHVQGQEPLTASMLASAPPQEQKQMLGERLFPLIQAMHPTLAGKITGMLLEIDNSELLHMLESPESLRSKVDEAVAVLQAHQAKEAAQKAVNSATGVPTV
# eIF4H FP inh – inhibitors of RNA binding by human eIF4H. Q15056. eIF4H fluorescence polarization binding assay. inhibition, % at 35 µM. hit rate 0.94% among 290,000. AID 2012;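 active means 50% or more with normal probe brightness, or confirmed in later tests; inconclusive means above 50% with abnormal brightness, or retests that disagree; inactive means below 50% or failed in later tests; about a fifth of its hits are not listed in these tables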;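 further: calls also rest on retests at 20 µM and on dose response follow-up; 0% = protein and probe with vehicle and 100% = probe without protein; strong numbers were not always called active; many hits fall short of the cut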
# HIV Env fusion – HIV envelope-mediated fusion inhibition | hit rate 1.1% among 360,000 | HeLa-JRFL Env/CEM21 cell fusion, luciferase | inhibition, % at 12.3 µM;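 active means mean replicate inhibition score of at least 50 and every replicate individually at or above 50; inconclusive means only one of the two criteria met; inactive means mean below 50 and not all replicates reaching 50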;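 further: 0% = plate neutral controls and 100% = maraviroc near 300 nM; one replicate is shown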
# MT1-MMP act inh RFP – also measured in MT1-MMP act inh; calls as there; RFP signal change, %; measured here: RFP expression control read;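 0 = vehicle wells; hits needed this value within 50% of zero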
# * marks the source's active call; other numbers are inactive results; i = inactive; ? = inconclusive; . = not tested or not shown; + = active, no number; & = joins results of further samples; [ ] = another dose, or the depositor's remark.
SMILES,CSC inhib,Rce1 inhib,MT1-MMP act inh,MT1-MMP act inh RFP,Yeast UUG start,PABP FP inh,eIF4H FP inh,HIV Env fusion
CCOc1cc(-c2noc(CCC(=O)NC3CCCCC3)n2)ccc1OC,.,i,-1,-2,5,-11,-4,10
O=C(Nc1cccnc1)c1ccc(Br)s1,-7,i,-1,-6,-14,7,9,12
CC(=O)Nc1ccc(S(=O)(=O)NCCC(=O)OCCN2C(=O)c3ccccc3C2=O)cc1,-3,i,1,4,-4,2,-7,.
CC1CCCC(C)N1CCOc1cc(N)ccc1C#N (centres undefined),.,.,0,6,1,.,.,4
Cc1ccc(C(=O)OCC(=O)Nc2ccc(N3CCOCC3)cc2)cc1,.,.,-2,3,1,.,.,-7
O=C(Nc1ccc(NC(=O)c2cccs2)cc1)c1ccccc1,10,i,-1,0,-13,16,8,-28
C=C1C(=O)O[C@@H]2[C@H]3O[C@]3(C)CC/C=C(\C)CC[C@@H]12,-8,.,5,-4,-8,.,.,23
COc1ccc(CCNC(=O)CSC2=Nc3ccccc3C3=NC(C(C)C)C(=O)N23)cc1OC (centres undefined),-8,i,-15,-9,14,-2,-4,12
Cc1[nH]c2ccccc2c1C(=O)C(=O)N1CCN(C)CC1,-8,i,0,1,-9,3,5,10
CC(=O)N1N=C(c2cccc(NS(C)(=O)=O)c2)CC1c1ccc2c(c1)OCO2 (centres undefined),-5,.,0,-6,-19,-1,-5,17
CCOc1cc(CNCCc2ccc(S(N)(=O)=O)cc2)ccc1OCc1ccccc1,3,i,-4,-7,-5,-1,4,-26
COc1ccc(C(=O)NCc2nnc(SCCOc3ccccc3)n2C)cc1,0,i,1,-3,-16,-5,-5,8
Cc1cccc(C)c1NC1=C(Cl)C(=O)OC1OC(C)C (centres undefined),23,i,-1,2,.,-4,-17,.
COc1ccc(NC(=O)Nc2cccc3c2O[C@H](CN(C)S(=O)(=O)c2cn(C)cn2)[C@@H](C)CN([C@H](C)CO)C3=O)cc1,-9,.,2,3,9&0,.,.,15[16.7 µM]
COc1cccc(-c2c(C#N)c(N)nc3c2c(=O)nc2sccn23)c1,-16,i,.,.,.,-12,6,.
COc1cccc(C(=O)N2CCN(Cc3ccccn3)CC2)c1OC,-2,i,-7,2,-12,1,6,.
Fc1ccccc1-n1cn[nH]c1=S,2,i,-1,1,.,-6,4,-4
CCCn1c(=O)c(C(=O)NCc2ccccc2)c(O)c2ccccc21,40,.,0,6,4,2,2,0
CC(=O)c1ccc(N2CCN(S(=O)(=O)c3cc4c(cc3C)NC(=O)CO4)CC2)cc1,.,i,-5,-1,-23,11,-2,1
CCc1ccc(NC(=O)c2c(Cl)nc(C)c(Cl)c2C)cc1,24,i,-3,-8,-4,-4,9,.
CC(=O)N1CCN(c2ccc(NC(=O)c3ccccc3C)cc2)CC1,1,i,-2,0,-4,-4,-5,-4
CCc1nc2ccc(C(=O)N3CCN(C(=O)c4ccco4)CC3)cn2c1N(C=O)Cc1ccc(OC)cc1,.,.,1,5,-11,.,.,-1
CC1(c2cccc(Br)c2)NC(=O)N(CC(=O)c2ccc3c(c2)OCCO3)C1=O (centres undefined),-7,.,3,0,11,.,.,.
CN=C(Nc1cc(C)nn1CCC#N)c1ccc(F)cc1,3,i,5,1,-28,5,-3,.
CCN(C(=O)COC(=O)c1ccc2[nH]c(C)c(C)c2c1)c1c(N)n(Cc2ccccc2)c(=O)[nH]c1=O,.,.,-6,2,-11,.,.,-6
CN(C)C(CNS(=O)(=O)c1cc([N+](=O)[O-])ccc1Cl)c1ccco1 (centres undefined),-9,.,-2,3,.,.,.,-4
CN(C)C(=C(C#N)C#N)N1CCN(c2ccc(Cl)cc2)CC1,2,i,1,2,.,5,-3,9
Cn1cccc1Cc1nnc(SCC(=O)Nc2nccs2)n1C,-17,i,0,5,-26,-8,-4,-4
CC(Oc1ccccc1)C(=O)NN1Cc2ccccc2C1=N (centres undefined),-10,i,3,4,.,1,3,8
CC(C)CNS(=O)(=O)c1ccc(OCC(=O)NCc2ccco2)cc1,-13,i,-2,7,.,-2,-8,-27
CCOC(=O)/C(C#N)=C1/C=CNC(=O)N1,-13,i,-3,-4,-7,2,-4,-77
CCOc1ccc(C(F)(F)F)cc1NC(C)=O,-1,i,0,4,-11,5,-5,.
O=C(c1ccc2c(c1)C(=O)N(Cc1ccncc1)C2=O)N1CCN(S(=O)(=O)c2ccc(OC(F)(F)F)cc2)CC1,.,.,-3,-1,-18,.,.,-22
CCOC(=O)c1sc(NC(=O)c2cccnc2)nc1C,-4,i,1,3,-8,6,-1,-31
N#Cc1c(SCc2cccc(Cl)c2)sc(C(=O)c2ccccc2)c1N,69,i,2,4,-13,31,5,.
COC(=O)c1ccccc1NC(=O)COC(=O)/C=C/c1cccs1,-4,.,-1,1,-11,.,.,-8
CCCn1c(SCC(=O)N2CCCCC2)nc2c1c(=O)n(C)c(=O)n2C,.,i,-1,1,-8,0,-10,-6
Cc1cc(=O)oc(C)c1C(=O)NCC(C)C,-11,.,0,1,-26,2,3,-29
Cc1cc(Oc2ccccc2)nc(N2CCOCC2)n1,0,i,-2,-1,-4,2,-3,.
CCOCCCn1c(SCC(=O)N2CCOCC2)nc2ccccc2c1=O,15,i,-2,2,-8,-6,0,1
CC(=O)c1ccc(N2CCN(C(=O)Nc3cccc(F)c3)CC2)cc1,64,i,1,-5,.,-6,-2,2
O=C(COC(=O)c1ccccc1Cl)NC(=O)NCc1ccccc1,.,i,0,4,.,3,0,-13
O=C(O)c1ccc2cccc(Cl)c2c1O,2,+,2,12,-16,7,-4,.
CSCCC(NC(=O)c1ccccc1)C(=O)Nc1ccncc1 (centres undefined),-6,.,0,-4,-18,.,.,2
CCN(CC)C(=O)Oc1ccc(Cl)c2ccccc12,.,.,4,4,.,8,1,-32
Cc1cc(NC(=O)NC(C)(C(F)(F)F)C(F)(F)F)no1,-10,i,-3,-2,-2,-17,-1,12
Cc1ccc(C)c(-c2csc(N)c2C(=O)OC(C)C)c1,?,i,-1,2,.,3,6,.
N#CCCN(C(=O)COC(=O)c1cccc(S(=O)(=O)Nc2ccc([N+](=O)[O-])cc2)c1)c1ccccc1,.,i,3,2,.,6,9,7
CCCCCCCN1C/C=C\C(c2ccc(OC)cc2)N(Cc2ccc(F)cc2)C(=O)[C@H]1Cc1ccccc1 (some centres undefined),25,i,3,-10,-9,0,-14,.
CCOc1cc(CO)cc(Br)c1OCC(=O)Nc1ccccc1C,-1,i,3,0,-2,3,-9,18
O=S(=O)(C=C(c1ccccc1)c1ccccc1)c1ccccc1,1,i,-4,-4,.,5,0,.
COc1ccccc1N(CC(=O)NC1CCCCC1)C(=O)CCC(=O)Nc1nccs1,-29,i,2,3,-17,4,3,2
CCOC(=O)C(C)Sc1cc(CS(=O)(=O)c2ccccc2)nc(-c2ccccc2)n1 (centres undefined),-7,i,-1,-4,-4,-8,-8,?
C#CCOCCOCCOCCNc1nc(N2CCN(C(=O)CCCCCCCCCCNC(=O)[C@H]([C@@H](C)CC)n3cc(CCCCN=C(N)N)nn3)CC2)nc(N2CCN(C(=O)CCCCCCCCCCNC(=O)[C@@H]([C@H](C)O)n3cc(C)nn3)CC2)n1,8,.,3,-4,8,.,.,.
Cc1ccc(C2=Nc3ccccc3N=C(c3ccc([N+](=O)[O-])cc3)C2)c(O)c1,16,i,-1,-3,-14,9,3,11
O=C(NCc1ccc2c(c1)OCO2)C12CC3CC(CC(C3)C1)C2,-12,i,3,3,-11,4,3,9
CC(C)(C)N(Cc1ccccc1)C(=O)COC(=O)C1CC(=O)N(Cc2ccccc2)C1 (centres undefined),.,.,0,4,3,.,.,3
Cc1c(C(=O)N2CCCC2)sc(NC(=O)c2ccco2)c1C#N,-10,i,-6,3,12,24,2,.
Cc1ccc(CC(CC(=O)Nc2cccc(C(F)(F)F)c2)C(=O)O)cc1 (centres undefined),-4,i,2,0,.,-13,1,6
C=CCNC(=O)NC(=O)COC(=O)c1cccnc1SC,9,i,2,2,.,0,-3,.

# (cont.)
SMILES,CSC inhib,Rce1 inhib,MT1-MMP act inh,MT1-MMP act inh RFP,Yeast UUG start,PABP FP inh,eIF4H FP inh,HIV Env fusion
Cc1c([N+](=O)[O-])cc(C(=O)Nc2ccc(NC(=O)c3ccco3)cc2)cc1[N+](=O)[O-],-4,i,4,4,-29,7,-12,-1
Cc1ccc(CNC(=O)CN2CCCC(C)C2)cc1 (centres undefined),-9,i,0,8,-15,-8,7,-34
CN(C(=O)CSc1nnc(Cc2cccs2)n1C1CC1)C1CCS(=O)(=O)C1 (centres undefined),.,.,-3,3,-20,.,.,4
c1ccc(N=C(c2cccs2)N2CCOCC2)cc1,-5,i,-3,1,-8,28,-6,.
CCC(NC(=O)NNC(N)=S)(C(F)(F)F)C(F)(F)F,0,i,3,3,.,-3,-7,-53
O=C(NCc1ccccc1)C1=C[C@@H](c2ccc3c(c2)OCO3)C[C@@H](OCCCCO)O1,3,i,7,0,13&0,.,.,-7[16.7 µM]
COC(=O)c1[nH]c2ccccc2c1NC(=O)c1ccccc1F,5,i,-1,0,3,10,2,2
Cc1cccc(/C=N/NC(=O)NC23CC4CC(CC(C4)C2)C3)n1,-3,i,4,-1,-8,12,4,1
CCOc1ccc(N(CC(=O)NC2CCC(C)CC2)S(=O)(=O)c2c(C)noc2C)cc1 (centres undefined),-8,i,-2,1,-7,-3,0,25
COc1cc(CN2CCN(Cc3ccc(SC)cc3)CC2)cc(OC)c1O,-3,i,-3,0,.,0,4,-8
Cc1[nH]nc(N)c1N=Nc1ccc(Br)cc1,.,i,.,.,.,-4,2,-14
COc1cc(/C=N/NS(=O)(=O)c2ccc3ccccc3c2)ccc1OCc1ccc(C(=O)O)cc1,12,i,0,2,-64,-4,4,50
O=C(Nc1ccccc1)c1[nH]ncc1[N+](=O)[O-],12,i,2,-4,-28,-2,0,-22
Cc1ccc(S(=O)(=O)NCCc2c[nH]c3ccccc23)cc1,0,i,-2,-4,-8,2,-6,8
COc1ccccc1CNC(=O)COC(=O)c1c(C)nn(-c2ccccc2)c1Cl,-2,i,-2,-1,-14,4,4,-1
CN1C(=O)N(C)C2(c3ccccc3)Nn3c(s/c(=C/c4ccccc4F)c3=O)=NC12c1ccccc1 (centres undefined),2,i,.,.,.,-2,-2,.
CC(=O)c1cccc(NC(=O)C(C)OC(=O)CCc2nc3ccccc3c(=O)[nH]2)c1 (centres undefined),-15,.,-1,2,.,.,.,10
O=C(COC(=O)c1cc(Br)ccc1Cl)NC(=O)NCc1ccccc1,3,i,2,0,.,6,2,-98
Cc1ccc(S(=O)(=O)N/N=C2/CC(=O)CC(C)(C)C2)cc1[N+](=O)[O-],-3,i,-11,-5,1,8,3,15
Cc1c(C(=O)N2CCCCC2)c(S(=O)(=O)NCc2ccccc2Cl)c(C)n1C,1,i,0,3,-2,5,-5,-3
CN(C(=O)c1cccc(NC(=O)Cc2ccc(NC(=O)C3CCCN(C(=O)C4CCCCC4)C3)cc2)c1)C1CCCCC1 (centres undefined),.,.,0,-14,-4,.,.,6
COCCCNC(=O)CSc1nc2ccccc2c(=O)n1CCCN1CCCCC1,.,i,-1,3,-19,-4,-10,14
CC(=O)c1ccc(S(=O)(=O)Nc2cccc(-c3cn4c(n3)SCC4)c2)cc1,-6,i,5,-6,4,12,-1,25

# High-throughput results from PubChem BioAssay.

# A portion of the library (hit frequency here may not be typical).
